# total CFTR = total CFTR protein upregulators, primary screen, cell-based, HeLa F508del-CFTR, immunofluorescence, viability (AID 1224863). calls, or highest fold increase where a dose series was run. HeLa F508del-CFTR, immunofluorescence total CFTR, 24 h; by the record results were divided by relative cell number; some inactives read as strong as hits. Cystic fibrosis transmembrane conductance regulator (Homo sapiens). 10,000 tested, 0.1% active; in the data nearly all actives have a first-pass fold increase above 1.5; a few of its hits are not listed in these tables;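 also: total CFTR protein by anti-CFTR immunofluorescence in fixed cells; first pass at 25 µM or 10 µg/mL by library and series up to twice that; 1 = untreated cells; first-pass hits also needed half or more of the cells alive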
# total CFTR fold 25 µM = further read-out of total CFTR, marked with its call; fold increase; measured here: primary screen single dose 25 uM; library dosed in µM
# total CFTR fold 10 ug/mL = recorded beside total CFTR, whose call it bears; fold increase; measured here: primary screen 10 ug/mL
# total CFTR viability 25 µM = recorded beside total CFTR, whose call it bears; viability, %; measured here: primary viability 25 uM; library dosed in µM;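 0% = killed and 100% = untreated cells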
# total CFTR viability 10 ug/mL = also measured in total CFTR; calls as there; viability, %; measured here: primary viability 10 ug/mL;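 0% = killed and 100% = untreated cells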
# Numbers without * were called inactive; i = inactive; . = not tested or not shown; & = joins results of further samples. These rows are one share of the data, so the mix of outcomes need not match the whole.
SMILES,total CFTR,total CFTR fold 10 ug/mL,total CFTR viability 10 ug/mL,others
COCC(C)n1c(C)cc(C(=O)Cn2cnc3ccsc3c2=O)c1C (stereo unspecified),i,0.99,98,
CC1=C(C)C(=O)C(C(CCCCCC(=O)O)c2ccccc2)=C(C)C1=O (stereo unspecified),i,.,.,total CFTR fold 25 µM=1.1;total CFTR viability 25 µM=105
CN(CC1COc2ccccc2O1)c1ccc(S(=O)(=O)N2CCCC2)cc1[N+](=O)[O-] (stereo unspecified),i,0.9,84,
NC1CC(=O)N(c2ccc(Oc3ccccc3)cc2)C1 (stereo unspecified),i,0.71,60,
COc1cc(OC)c(OC)cc1CNS(=O)(=O)c1cc(Cl)ccc1Cl,i,1,93,
COc1cccc2c1C(=O)c1c(O)c3c(c(O)c1C2=O)C[C@@](O)(C(C)=O)C[C@@H]3O[C@H]1C[C@H](N)[C@H](O)[C@H](C)O1,i,.,.,total CFTR fold 25 µM=0.63&0.63;total CFTR viability 25 µM=44&38
Cc1ccc(C(=O)NCC(=O)N2CCCC2)o1,i,1,89,
CN(C)C(CNC(=O)c1nccnc1N)c1ccsc1 (stereo unspecified),i,1.1,105,
O=C(OC1c2ccccc2-c2ccccc21)c1cc(Br)c(Br)s1,i,1,111,
NC(=O)CSCCC(=O)Nc1nncs1,i,1,107,
CCCn1c(=S)n(CN2CCN(S(=O)(=O)N(C)C)CC2)c2cc(Cl)ccc21,i,0.98,81,
CC1CC(C)CN(c2n[nH]c(=S)n2Cc2ccco2)C1 (stereo unspecified),i,0.97,93,
O=C(CSc1nc(C2CC2)nc2c1c(=O)[nH]c(=O)n2C1CC1)N1CCCCC1,i,0.97,96,
Cc1ccc(C(C)C)cc1OCCCNCCN(C)C,i,1.1,104,
CCCCOc1ccc(C(C)N)cc1OC (stereo unspecified),i,1.2,96,
c1ccc(-c2nc(COc3ccc4c(c3)OCO4)co2)cc1,i,1,96,
NCCC(N)=O,i,0.97,99,
Nc1c2c(nc3ccccc13)CCCC2,i,.,.,total CFTR fold 25 µM=1.1&1.1;total CFTR viability 25 µM=105&81
Cc1ccc2c(CSc3nnc(-c4ccoc4C)o3)cc(=O)oc2c1C,i,1.1,113,
CN1CCN(C2=Nc3cc(F)ccc3Cc3ccccc32)CC1,i,.,.,total CFTR fold 25 µM=1;total CFTR viability 25 µM=100
COc1ccc(-c2cc(-c3nc4ccccc4[nH]3)c(-c3ccccc3)nn2)cc1OC,i,0.93,87,
Cc1ccnc(NS(=O)(=O)c2ccc(N)cc2)n1,i,.,.,total CFTR fold 25 µM=1.1;total CFTR viability 25 µM=101
Cc1cc(NC(=O)CSc2nnnn2CC2CCCO2)no1 (stereo unspecified),i,1.1,95,
COC(=O)C(C)(C)NCC(=O)N1c2ccccc2NC(=O)CC1C(F)(F)F (stereo unspecified),i,1,97,
CC(C)NCC(O)COc1ccc(CCOCC2CC2)cc1 (stereo unspecified),i,.,.,total CFTR fold 25 µM=1.1&0.96;total CFTR viability 25 µM=102&90
Cn1c(C2CC2)nn(CN2CCN(c3cccc(Cl)c3)CC2)c1=S,i,1.1,93,
NCCS(N)(=O)=O,i,0.98,99,
O=S(=O)(NC1CCCCC1)c1ccc2c(c1)CCC2,i,0.91,97,
CC(NS(=O)(=O)N1CCOCC1)c1cccc2ccccc12 (stereo unspecified),i,1,95,
Cc1ccc(-c2nc(Cn3nc(C)c([N+](=O)[O-])c3C)cs2)o1,i,0.93,91,
O=C(OCC(O)CO)c1ccccc1Nc1ccnc2cc(Cl)ccc12 (stereo unspecified),i,.,.,total CFTR fold 25 µM=1;total CFTR viability 25 µM=83
CC(C)N1CC(C(=O)N2CCN(c3ncccn3)CC2)CC1=O (stereo unspecified),i,0.98,93,
O=S(=O)(N1CCCN(c2ncc(C(F)(F)F)cc2Cl)CC1)N1CCc2ccccc2C1,i,0.98,90,
c1ccc(OCCNCCN2CCOCC2)cc1,i,1.2,120,
CN(CCCNC(=O)C1CCCO1)S(C)(=O)=O (stereo unspecified),i,1.1,106,
Cn1cc(C(=O)NC(C)(C)C)cn1,i,1.1,99,
Cc1ccccc1-n1nnnc1SCc1cc(Cl)c2c(c1)OCCO2,i,0.97,84,
N#CCSc1nc2sc3c(c2c(=O)n1C1CCCC1)CCCC3,i,0.98,80,
O=S(=O)(C/C=C/c1ccccc1)Cc1cc(Cl)c2c(c1)OCCO2,i,0.9,95,
CC1(C2CC2)NC(=O)N(CC(=O)NCC23CC4CC(CC(C4)C2)C3)C1=O (stereo unspecified),i,0.99,86,
CCNC(=O)CSc1nc(=O)[nH]c(C)c1C(C)=O,i,1.1,119,
CCCCn1c(=O)[nH]c(=O)c2c1nc(CSc1nnc(-c3ccoc3C)n1C)n2CC,i,1,95,
Cc1cc(NC(=O)C(C)(C)C)sc1C(=O)OCC(=O)NC(C)c1ccco1 (stereo unspecified),i,1.1,85,
CN(C1CCCCC1)S(=O)(=O)NCC(c1ccccc1)N1CCc2sccc2C1 (stereo unspecified),i,0.88,79,
CN1CCC(Nc2cccc3ccccc23)CC1,i,1.1,81,
COC(=O)C(N)CS (stereo unspecified),i,.,.,total CFTR fold 25 µM=1.1;total CFTR viability 25 µM=85
O=S(=O)(NCc1ccc(N2CCCC2)nc1)c1ccc2c(c1)CCC2,i,0.9,88,
CCOC(=O)C1(N)CCCCC1,i,1.1,87,

# 3 compounds from above, ordered by formula weight, ascending:
SMILES,total CFTR,total CFTR fold 10 ug/mL,total CFTR viability 10 ug/mL,others
N#CCSc1nc2sc3c(c2c(=O)n1C1CCCC1)CCCC3,i,0.98,80,
Cc1ccccc1-n1nnnc1SCc1cc(Cl)c2c(c1)OCCO2,i,0.97,84,
CCCCn1c(=O)[nH]c(=O)c2c1nc(CSc1nnc(-c3ccoc3C)n1C)n2CC,i,1,95,

# Going on with the list.
SMILES,total CFTR,total CFTR fold 10 ug/mL,total CFTR viability 10 ug/mL,others
Nc1cccc2c1CN(C1CCC(=O)NC1=O)C2=O (stereo unspecified),i,.,.,total CFTR fold 25 µM=0.91;total CFTR viability 25 µM=92
CC(NS(=O)(=O)c1ccccc1OC(F)(F)F)c1ccc2c(c1)OCO2 (stereo unspecified),i,0.93,77,
O=[N+]([O-])c1ccc(S(=O)(=O)NC2c3ccccc3Oc3ccccc32)c(Cl)c1,i,0.87,78,
Cc1nc(Sc2nnnn2C2CC2)c2c(-c3cccs3)csc2n1,i,0.78,70,
O=C(O)c1cc(C2CC2)nc2onc(-c3ccccc3)c12,i,1.1,89,
NC(=O)c1c(NC(=O)COC(=O)c2cc3c(s2)CCCC3)sc2c1CCCC2,i,1.1,105,
Cc1cccc(C)c1-n1nnnc1Sc1ccc2nnc(C(F)(F)F)n2n1,i,0.62,34,
Nc1nc(CSc2nnnn2C2CCCCC2)nc2ccccc12,i,0.97,84,
c1ccc(NC2CCNCC2)nc1,i,1.1,98,
CN1Cc2ccc(N)cc2C1,i,1.1,94,
CCCNCc1cc(=O)oc2cc(NC(=O)OCC)ccc12,i,0.98,83,
C#CCNC(=O)CCc1nc(CCC)no1,i,1.1,91,

# Gathered by group: those above with fluorine
SMILES,total CFTR,total CFTR fold 10 ug/mL,total CFTR viability 10 ug/mL,others
CN1CCN(C2=Nc3cc(F)ccc3Cc3ccccc32)CC1,i,.,.,total CFTR fold 25 µM=1;total CFTR viability 25 µM=100
COC(=O)C(C)(C)NCC(=O)N1c2ccccc2NC(=O)CC1C(F)(F)F (stereo unspecified),i,1,97,
O=S(=O)(N1CCCN(c2ncc(C(F)(F)F)cc2Cl)CC1)N1CCc2ccccc2C1,i,0.98,90,
CC(NS(=O)(=O)c1ccccc1OC(F)(F)F)c1ccc2c(c1)OCO2 (stereo unspecified),i,0.93,77,
Cc1cccc(C)c1-n1nnnc1Sc1ccc2nnc(C(F)(F)F)n2n1,i,0.62,34,

# Of the compounds above, these contain an aryl methoxy group:
SMILES,total CFTR,total CFTR fold 10 ug/mL,total CFTR viability 10 ug/mL,others
COc1cc(OC)c(OC)cc1CNS(=O)(=O)c1cc(Cl)ccc1Cl,i,1,93,
COc1cccc2c1C(=O)c1c(O)c3c(c(O)c1C2=O)C[C@@](O)(C(C)=O)C[C@@H]3O[C@H]1C[C@H](N)[C@H](O)[C@H](C)O1,i,.,.,total CFTR fold 25 µM=0.63&0.63;total CFTR viability 25 µM=44&38
CCCCOc1ccc(C(C)N)cc1OC (stereo unspecified),i,1.2,96,
COc1ccc(-c2cc(-c3nc4ccccc4[nH]3)c(-c3ccccc3)nn2)cc1OC,i,0.93,87,

# Grouped by structure: those above with an NH in an aromatic ring (five)
SMILES,total CFTR,total CFTR fold 10 ug/mL,total CFTR viability 10 ug/mL,others
CC1CC(C)CN(c2n[nH]c(=S)n2Cc2ccco2)C1 (stereo unspecified),i,0.97,93,
O=C(CSc1nc(C2CC2)nc2c1c(=O)[nH]c(=O)n2C1CC1)N1CCCCC1,i,0.97,96,
COc1ccc(-c2cc(-c3nc4ccccc4[nH]3)c(-c3ccccc3)nn2)cc1OC,i,0.93,87,
CCNC(=O)CSc1nc(=O)[nH]c(C)c1C(C)=O,i,1.1,119,
CCCCn1c(=O)[nH]c(=O)c2c1nc(CSc1nnc(-c3ccoc3C)n1C)n2CC,i,1,95,

# Next records follow.
SMILES,total CFTR,total CFTR fold 10 ug/mL,total CFTR viability 10 ug/mL,others
COC(=O)c1ccc(NC(=O)C2CCC2)s1,i,1.1,88,
CCOC(=O)/C(=C/c1ccc(C)s1)C1=Nn2c(C)nnc2SC1,i,1,84,
Cc1c(C)c2c(c(C)c1O)CCC(C)(COc1ccc(CC3SC(=O)NC3=O)cc1)O2 (stereo unspecified),i,.,.,total CFTR fold 25 µM=0.8;total CFTR viability 25 µM=76
O=C(NC1CCCCC1)C1(S(=O)(=O)c2ccc(Cl)cc2)CCCC1,i,0.96,98,
CSCCn1cnc2c1c(=O)n(C)c(=O)n2C,i,1.1,105,
NCc1cccc(N2CCOC2=O)c1,i,0.89,73,
c1ccc2c(CN3CCN(c4nc5ccccc5o4)CC3)cccc2c1,i,1.1,93,
CC(C)CC(N)=O,i,.,.,total CFTR fold 25 µM=1.1;total CFTR viability 25 µM=86
Cc1cc(C(=O)OCCN2C(=O)NC(C)(C)C2=O)c(C)n1Cc1cccs1,i,0.82,96,
CCSc1nnc(NC(=O)C(NC(C)=O)C2CCCC2)s1 (stereo unspecified),i,1.1,88,
CC(C)N(CC(=O)Nc1sccc1C(N)=O)C1CC1,i,0.93,79,
Cc1ccc(NC(=O)c2ccc(CN3CCN(C)CC3)cc2)cc1Nc1nc(-c2cccnc2)cs1,i,.,.,total CFTR fold 25 µM=0.85;total CFTR viability 25 µM=88
Nc1nccnc1C(=O)NCCCOC1CCCCC1,i,0.95,92,
CN(C)C(C)(C)CNc1nnc(-c2ccccc2)c2ccccc12,i,1.1,87,

# Screening data as filed in PubChem.
